Screening data from PubChem.
BasE inh: inhibitors of Acinetobacter baumannii siderophore enzyme BasE. purified BasE, fluorescence polarization binding displacement. inhibition, % (no concentration beside the values). 84,000 compounds, 0.1% hits;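 active = both replicates above 25% with normal brightness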;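 note: 0% = negative plate control signal and 100% = positive plate control signal; stock transfer was 100 nL into about 30 µL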
KSHV LANA nucl: LANA-nucleosome interaction inhibition; 51,000 compounds, 0.3% hits; z-score (concentration not given with the values); FITC-LANA1-23 / chicken nucleosome fluorescence polarization; hits give low values;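 active = both repeat wells score below -2 in polarization z-score versus plate sample wells, excluding overly bright wells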;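 note: 100 nL library stock added to about 30 µL; numbers are from one replicate; some results filed as inactive read as strong as hits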
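Assay system: FITC-LANA peptide and chicken nucleosomes; input: 240 nM purified chicken nucleosomes (480 nM peptide binding sites), final; also added: 50 nM FITC-LANA1-23 probe; medium: TEN-BT buffer, pH 7.5; doses: pin-transferred compound, 100 nL; times: 10–45 min, room temperature; technique: fluorescence polarization; replication: duplicates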
* hit, by the source's call; . = no result given; & = joins results of further samples. Some of the compounds tested (hit frequency here may not be typical).

SMILES | BasE inh | KSHV LANA nucl
CCN(C(=O)Cn1cc(C(F)(F)F)ccc1=O)C1=CCCC1 | 2.0 | .
CN(C)S(=O)(=O)c1ccc(SCC(=O)Nc2ccc3c(c2)CCC3)nc1 | -1.2 | .
CCNC(=O)c1ccccc1-c1nc(-c2ccc(OC)c(OC)c2)no1 | -5.0 | -0.82
COc1ccccc1NC(=O)CSc1nc2ccccc2o1 | 3.3 | .
N#CC(C#N)=Cc1ccc(Oc2ccccc2)nc1 | -0.6 | -0.18
CCCOc1ccccc1O | 3.1 | .
CCOC(=O)c1cc(-c2ccccc2)n(CC(=O)N2CCN(C3CCCCC3)CC2)c1C | 1.2 | -0.76
CCn1c(C)cc(/C=C2\C(=O)NC(=O)N(c3ccc(OC)cc3)C2=O)c1C | -3.2 | 1.3
CS(=O)(=NS(=O)(=O)c1cc(S(=O)(=O)c2ccccc2)cs1)c1ccccc1 (stereo not given) | 1.3 | 0.8
Cc1ccc(C(C)C)c(OCCn2c(CCNC(=O)c3ccco3)nc3ccccc32)c1 | -4.8 | 1.6
Cc1ccc(OCC(O)CNc2ccc(Br)c(C(F)(F)F)c2)cc1C (stereo not given) | 2.7 | .
CCC(C)NS(=O)(=O)c1ccc(F)c(OC)c1 (stereo not given) | -3.8 | 1.8
Cc1ccc(-n2nnnc2-c2cnn(-c3ccccc3)c2C)cc1 | -0.6 | .
CCNc1nc(NCC)n2c(=S)[nH]nc2n1 | -2.5 | -0.23
CCOC(=O)c1cc2ccccc2nc1N | -0.5 | 0.28
CCc1nnsc1C(=O)Nc1c(C(=O)Nc2ccccc2)oc2ccccc12 | -0.4 | -0.082
CC1CCN(C(=O)Cn2cc(C=C3C(=O)N(C)C(=O)N(C)C3=O)c3ccccc32)CC1 | 0.5 | -0.54
CCc1ccccc1Nc1nc(N)nc(CN2C(=O)NC3(CCCCCC3)C2=O)n1 | -0.9 | .
O=C(c1cccn2c(=O)c3cc4ccccc4cc3nc12)N1CCN(Cc2ccc3c(c2)OCO3)CC1 | 8.2 | -2.8
O=C(CNC(=O)c1ccc(Br)o1)Nc1ccc(Br)c(C(F)(F)F)c1 | 2.4 | .
CC(CC(=O)Nc1ccccc1)CC1=NS(=O)(=O)c2ccccc2N1 (stereo not given) | -4.4 | 2.8
N/C(=N\OC(=O)c1ccccc1)c1cccnc1 | -0.2 | 0.54
Nc1ccc(S(=O)(=O)N2CC(=O)NC(=O)C2)cc1 | -2.1 | 0.85
Cc1nn(C(C)(C)C)c(C(=O)Sc2cccc(C(F)(F)F)c2)c1Br | 3.3 | .
O=c1cc(O)c2c(=O)n3c4c(cccc4c2o1)CCC3 | -1.4 | 0.77
Cc1cc(Cc2cccs2)c(=O)[nH]n1 | 2.1 | .
O=C(NCCN1CCCCC1)Nc1ccccc1 | -2.8 | 2.9
O=C(Nc1cccc2ccccc12)c1cc2ccccc2oc1=O | 2.0 | .
CCc1ccc(OC)c(S(=O)(=O)N2CCCCC2)c1 | -0.5 | -0.8
CC1=C(C(=O)N2CCN(Cc3ccccc3)CC2)C2(CCCCC2)OC1=O | 1.7 | 0.37
COc1cc(SC)ccc1C(=O)Nc1ccc(S(=O)(=O)N(C)C)cc1 | -1.9 | .
COc1ccc(C(=O)/C=C/Nc2ccc(S(=O)(=O)Nc3cnc4ccccc4n3)cc2)cc1 | -2.0 | .
COc1cccc2c1c(NC(=O)C1CCN(C(=O)OCc3ccccc3)CC1)nn2C | 0.6 | -0.71
CCN(CC)Cc1nc2sc(C)c(C)c2c(=S)[nH]1 | 1.5 | .
COC(=O)c1sc2nc3ccccc3cc2c1N | -4.6 | -0.42
CSC(SC)=C(C#N)C(=O)c1cccc(C(F)(F)F)c1 | -4.0 | .
c1ccc(N2CCN(Cc3nnnn3Cc3ccc4c(c3)OCO4)CC2)cc1 | -0.7 | 0.24
CCOC(=O)CCCn1c(C)nc(=O)c(-c2ccccc2)c1C | -0.3 | .
O=C(NCc1ccccc1)c1cccnc1NCc1ccccc1 | -0.4 | -0.37
CN(C)CCC=C1c2ccccc2CCc2ccccc21 | -5.0&1.6 | -0.098&0.15&-0.37
O=C(OCc1cc(=O)n2ccsc2n1)c1ccccc1NCCO | 1.8 | .
COc1cc(-c2cn[nH]c2N)cc(OC)c1OC | 1.6 | 0.16
COc1ccc(C(=O)Nc2nnc(C3=COCCO3)o2)cc1 | -1.9 | 1
Cc1ccc(OC(C)C(=O)N2CC(=O)Nc3ccccc32)c(C)c1 (stereo not given) | -0.5 | -0.78
NNC(=O)c1ccccc1OCc1ccc(Cl)cc1 | -0.1 | .

Part of the list above, set out differently:
CCN(CC)Cc1nc2sc(C)c(C)c2c(=S)[nH]1
  BasE inh = 1.5 | KSHV LANA nucl = .
COC(=O)c1sc2nc3ccccc3cc2c1N
  BasE inh = -4.6 | KSHV LANA nucl = -0.42
CSC(SC)=C(C#N)C(=O)c1cccc(C(F)(F)F)c1
  BasE inh = -4.0 | KSHV LANA nucl = .
c1ccc(N2CCN(Cc3nnnn3Cc3ccc4c(c3)OCO4)CC2)cc1
  BasE inh = -0.7 | KSHV LANA nucl = 0.24

Next section
SMILES | BasE inh | KSHV LANA nucl
CN(C)N=Nc1ccc(Oc2ccccc2)cc1 | 0.6 | -0.72
CC(C)CCNC(=O)[C@H](CC(C)C)NC(=O)[C@H]1O[C@@H]1C | . | -0.15
O=c1[nH]c2ccccc2s1 | 0.7&-2.5 | -0.1&2.1
O=C1c2ccccc2-c2nnc(-c3cccs3)cc21 | 4.2 | 0.44
O=c1[nH]c2ccccc2nc1/C=C(\O)c1cccc2ccccc12 | -5.0 | .
COc1c(O[C@@H]2O[C@H](CO)[C@@H](O)[C@H](O)[C@H]2O)cc2c(c1OC)-c1ccc(SC)c(=O)cc1C(NC(C)=O)CC2 (stereo not given in full) | -0.5 | -0.067
CCc1ccc(-c2cn3c(n2)SCC3)cc1 | -3.9 | -1
CCCCN1C(=S)SC(C)(C)C1NO (stereo not given) | 6.5 | -0.31
FC(F)(F)c1ccccc1N=C1CCCc2ccccc21 | 2.7 | .
C=CCn1c(=S)[nH]c2sccc2c1=O | -1.3 | .
CCn1nc(C(=O)OCC(=O)c2cc(C)n(Cc3cccs3)c2C)c2ccccc2c1=O | 2.2 | .
Cc1cccc(C(=O)Nc2ccc(N3CCN(C(C)C)CC3)cc2)c1 | . | -1.1
CCNC(=S)N/N=C/c1ccc(C)s1 | 0.1 | .
O=C1c2ccccc2C(=O)N1CCc1nnn(Cc2ccc(Cl)cc2)n1 | -14 | .
Cc1csc2nc(SCCC(=O)Nc3ccccc3)[nH]c(=O)c12 | 4.2 | -0.0025

Overlap with the part before: two entries, then new ones.
SMILES | BasE inh | KSHV LANA nucl
O=C1c2ccccc2C(=O)N1CCc1nnn(Cc2ccc(Cl)cc2)n1 | -14 | .
Cc1csc2nc(SCCC(=O)Nc3ccccc3)[nH]c(=O)c12 | 4.2 | -0.0025
N#Cc1cnn2c(-c3ccccc3)ccnc12 | . | 0.86
c1ccc(OCc2nnc(-c3ccccc3)o2)cc1 | -2.1 | -0.091
CC(C)NC(=S)N/N=C/C1CC=CCC1 (stereo not given) | 2.5 | .
C=CCN1C(=O)C(CC(=O)Nc2ccc(Cl)cc2)NC1=S (stereo not given) | -1.1 | -1
CCOC(=O)c1n[nH]c(=S)[nH]c1=O | 2.3&-3.6 | 0.98
CCN1C(=O)c2ccc(-c3nc4cc(Cl)ccc4o3)cc2C1=O | 3.4 | -1
CCCCn1c(CCc2cc(OC)c(OC)c(OC)c2)nc2cc(S(N)(=O)=O)ccc21 | -3.3 | .
COc1ccc(CCN(C)C(=O)CSc2nnc3n2CCCCC3)cc1OC | 4.4 | .
COc1cccc(C2CC(=O)Nc3nc(N)[nH]c(=O)c32)c1 (stereo not given) | 0.6 | 0.15
CCOC(=O)c1cncc(C#CCOC(=O)c2c(-c3ccccc3)noc2C)c1 | 0.0 | .
CC(OC(=O)c1ccco1)C(=O)Nc1ccccc1-c1ccccc1 (stereo not given) | 1.9 | .
Cc1cccc(N2CCN(C(C)C(=O)N(C)c3ccccc3)CC2)c1C (stereo not given) | 1.9 | .
CC(NC(=O)C1=NN(C2CCS(=O)(=O)C2)C(=O)CC1)c1ccc(S(N)(=O)=O)cc1 (stereo not given) | 0.8 | .
CC(C[N+](C)(C)C)OC(=O)C1(c2ccccc2)CCCC1 (stereo not given) | 0.3 | .
CC(C)(C)NC(=O)c1nc(-c2ccccc2)n(-c2ccccc2)n1 | -0.3 | .
CSc1sc(NC(=O)N2CCOCC2)c(-c2ccc(Cl)cc2)c1C#N | -2.3 | .
O=C(O)CCN=C1CCCc2ccccc2N1 | 2.4 | .
O=C(c1cccc(F)c1)N1CCN(Cc2c[nH]c3ccccc23)CC1 | -2.5 | -0.028
O=C(Nc1ccc(Cl)cc1)c1csc(COc2ccc3nonc3c2)n1 | 1.3 | .
O=C(CSC1=NC2(CCCC2)Nc2ccccc21)Nc1ccc2c(c1)OCCO2 | -0.1 | .
COC(=O)c1cn(-c2cccc(C)n2)cn1 | . | -0.048
Cc1cc(C(=O)N2N=C(C3CC3)CC2(O)C(F)(F)F)c2ccccc2n1 (stereo not given) | 0.3 | .
CCN(Cc1ccccc1)C(=O)Cc1ccccc1 | 2.6 | -0.84
Cc1ccccc1NC(=O)Cc1nnc(SC(C)c2nc3ccccc3c(=O)[nH]2)n1C (stereo not given) | -2.2 | 1.2
CS(=O)(=O)c1ccc([C@@H](O)[C@@H](CF)NC(=O)C(Cl)Cl)cc1 | -1.2 | 0.12&0.13
COc1ccc(CCNC(=O)C2CCCN2C(=O)NC2CCCCC2)cc1OC (stereo not given) | 0.9 | -1.2
CC(C)Cn1cnc2c1c(=O)n(Cc1coc(-c3ccccc3)n1)c(=O)n2Cc1ccccc1 | 2.0 | .
O=C(CSc1nncc(=O)[nH]1)Nc1cccc(Cl)c1 | 0.9 | -0.11
CCn1cc(Cc2cn(CC)nc2C)c(C)n1 | -1.5 | 1.2
COCc1cc(C)nc(OCC(=O)O)c1C#N | 1.1 | -0.34

Shown as labelled records: entries from further up
COc1ccc(CCNC(=O)C2CCCN2C(=O)NC2CCCCC2)cc1OC (stereo not given)
  BasE inh = 0.9 | KSHV LANA nucl = -1.2

CC(C)Cn1cnc2c1c(=O)n(Cc1coc(-c3ccccc3)n1)c(=O)n2Cc1ccccc1
  BasE inh = 2.0 | KSHV LANA nucl = .

O=C(CSc1nncc(=O)[nH]1)Nc1cccc(Cl)c1
  BasE inh = 0.9 | KSHV LANA nucl = -0.11

(continued)
SMILES | BasE inh | KSHV LANA nucl
Cc1cccn2c(=O)c3cc(C(=O)NC4CCCCC4)c(=N)n(Cc4ccco4)c3nc12 | -4.0 | 0.67
O=C1c2ccccc2C(=O)N1CCN1CCN(Cc2ccccc2)CC1 | -2.7 | 2.8
Cc1nc2ccccc2nc1CSc1nnc(-c2cccc(S(=O)(=O)N3CCOCC3)c2)o1 | 2.9 | .
CCOC(=O)NN1C(=O)c2ccccc2NC1C (stereo not given) | -0.2 | 0.23
Cc1nn(C)c2c1S(=O)(=O)N=C(N1CCOCC1)S2 | -0.3 | .
S=c1oc(-c2ccccc2)nn1CNc1ccccc1 | 0.1 | -0.25
CNC(=O)NC(=O)C(Sc1nnc(-c2ccc(C)cc2)o1)c1ccccc1 (stereo not given) | 2.3 | .
CCN(CC(=O)Nc1ccccc1OC)Cc1cc(=O)n2cc(Cl)ccc2n1 | 3.7 | .
COc1ccc(C2CCCN2Cc2nc(N)nc(Nc3ccc(C)cc3)n2)c(OC)c1 (stereo not given) | -3.5 | .
O=C(COC(=O)C1COc2ccccc2O1)Nc1ccccc1 (stereo not given) | 0.8 | .
Cc1[nH]c2ccccc2c1C1=CSC2=NS(=O)(=O)CCN12 | 0.7 | .
Cc1oc2cc(Br)c(O)c(Br)c2c1-c1ccccc1 | 0.4 | .
CCN1C(=O)c2ccc(C(=O)Nc3cc(C(=O)O)cc(C(=O)O)c3)cc2C1=O | 0.7 | .
O=C(COc1ccccc1)N(Cc1cccs1)C1CCS(=O)(=O)C1 (stereo not given) | 0.7 | 0.038
CC(C(=O)O)N1CCCC1=O (stereo not given) | -2.0 | 0.64
CC(=O)Nc1ccc(SCC(=O)Nc2cccc3nsnc23)cc1 | -1.8 | .
CCOC(=O)Cn1c(=O)oc2cc(S(=O)(=O)N(C)c3ccc(OC)cc3OC)ccc21 | -2.6 | 0.17
COc1cccc2c1CCN(Cc1cccc(C)c1)C2=O | -1.4 | -0.94
CC1C(C#N)=C(N)OC2=C1C(=O)CCC2 (stereo not given) | 0.0 | -1
O=C(C1CCCCC1)N1CCN(c2ccc(N3CCCCCC3)nn2)CC1 | 1.0 | 0.65
COC(=O)c1cc(NC(=S)NN2CCOCC2)cc(C(=O)OC)c1 | 1.0 | -1
Cc1ccc2nc(C)c3c(c2c1)N(c1ccccc1)CC3 | -0.2 | .
O=C(O)c1csc(Cc2ccccc2)n1 | . | -0.057
CC(Sc1nc2sc3c(c2c(=O)n1C)CCCC3)C(N)=O (stereo not given) | -0.5 | .
O=C(COc1ccc(Cl)cc1)Nc1ccc2c(c1)CCCN2C(=O)C1CC1 | 1.1 | 1
N#CCSc1nc2cc3c(cc2c(=O)n1CCCC(=O)NCc1ccc2c(c1)OCO2)OCO3 | 1.2 | -0.36
N#CCSc1nnc(C2COc3ccccc3O2)o1 (stereo not given) | -1.8 | .
O=C1CCC(c2ccc(Br)cc2)=NN1 | 4.4 | -0.28
CC(C)NC(=O)Nc1cccc(Cl)c1 | 5.3 | 0.36
